Screening data as filed in PubChem.
PINK1 modulator – changes PINK1 expression | PINK1 immunofluorescence, high-content cytometry, 24 h | AID 624263 | Potency, µM (titrated, usually from 76.6 µM), without a hit: top-dose activation (PINK1 increase), usual class: activators | actives 0.2% (n = 410,000); active = well fitted activation curve with a large enough effect; inconclusive = small, poorly fitted or top-dose-only effect; inactive = flat fitted curve, though single readings scatter; cell line not stated here;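 note: potency is the fitted concentration of half-maximal effect; % of control where 0% means no effect; nearly all actives have a fitted effect of over 65% in size; a mitochondrial uncoupler was the plate control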
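Stable cell line, 250 cells/well, 12 h attachment; compounds pinned at 5 concentrations, 24 h; CCCP control. Fixed with nuclear dye, primary antibodies 12 h at 10 degrees C, secondary plus cell stain; laser-scanning cytometer read.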
D2 ag – activates the human D2 dopamine receptor; DiscoveRx PathHunter D2 beta-arrestin, luminescence, 90 min; 100% = 57 uM dopamine signal; AID 624465; actives 0.084% (n = 360,000); activation, % (test concentration not listed); P14416; in the data active = activation above about 40%; inconclusive = about 15% to 40%; inactive = below about 15%; note: compound concentration not given in the record; the text of the record calls up to 30% inactive
Target sequence (P14416 whole entry, looked up): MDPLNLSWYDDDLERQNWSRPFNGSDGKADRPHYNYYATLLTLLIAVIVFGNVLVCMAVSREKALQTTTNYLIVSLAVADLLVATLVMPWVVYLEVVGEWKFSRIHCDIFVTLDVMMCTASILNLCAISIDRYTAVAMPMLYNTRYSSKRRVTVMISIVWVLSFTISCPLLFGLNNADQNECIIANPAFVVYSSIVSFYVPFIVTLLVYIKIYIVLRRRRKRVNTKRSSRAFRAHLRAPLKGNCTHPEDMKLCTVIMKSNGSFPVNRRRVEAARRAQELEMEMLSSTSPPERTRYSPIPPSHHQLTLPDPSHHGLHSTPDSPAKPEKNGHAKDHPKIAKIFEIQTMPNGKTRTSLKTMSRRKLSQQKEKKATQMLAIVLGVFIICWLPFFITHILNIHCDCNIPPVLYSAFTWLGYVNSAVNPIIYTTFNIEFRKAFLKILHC
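Agonist mode: compounds alone added to overnight-plated D2 PathHunter cells for 90 min at 37 C, with 57 uM final dopamine (EC100) defining full response. Beta-arrestin recruitment detected by chemiluminescent reagent, read after 1 h at ambient temperature.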
TRPML1 agonist – human mucolipin-1 channel agonism; Q9GZU1; TRPML1-expressing cells, Ca2+ dye fluorescence, FDSS; host cell line not named in the record; reference of the full effect not given here; activation, % (concentration not given with the values); actives 0.12% (n = 410,000); in the data active = activation above about 50%; inconclusive = about 30% to 50%; inactive = below about 30%; note: 0% is about no effect; the text of the record puts the active cut at 80%
Target sequence (Q9GZU1 whole entry, looked up): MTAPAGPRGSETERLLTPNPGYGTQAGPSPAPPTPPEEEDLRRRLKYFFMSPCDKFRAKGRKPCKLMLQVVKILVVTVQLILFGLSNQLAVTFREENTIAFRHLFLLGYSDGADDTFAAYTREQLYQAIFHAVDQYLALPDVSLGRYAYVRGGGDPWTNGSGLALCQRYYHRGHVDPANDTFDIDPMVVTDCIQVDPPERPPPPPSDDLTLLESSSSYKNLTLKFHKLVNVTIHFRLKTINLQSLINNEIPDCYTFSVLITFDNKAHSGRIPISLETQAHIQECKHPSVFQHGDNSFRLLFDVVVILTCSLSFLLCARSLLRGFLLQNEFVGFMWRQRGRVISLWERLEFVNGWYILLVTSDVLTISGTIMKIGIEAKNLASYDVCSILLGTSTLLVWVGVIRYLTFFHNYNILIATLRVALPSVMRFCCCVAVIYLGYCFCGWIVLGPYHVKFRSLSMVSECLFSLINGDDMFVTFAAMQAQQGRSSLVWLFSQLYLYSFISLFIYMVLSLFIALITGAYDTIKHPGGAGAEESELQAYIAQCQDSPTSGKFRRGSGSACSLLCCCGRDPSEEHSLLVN
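In this qHTS format, compounds were pin-transferred onto Ca8-dye-loaded TRPML1-DL cells induced with Tet overnight, and intracellular Ca2+ fluorescence was recorded kinetically for 110 s after a 10 s baseline. A subsequent 4uM final 54-4 (EC80) addition followed by a second 110 s read served as the antagonist phase.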
CtBP-E1A inh – inhibitors of CtBP/E1A interaction; actives 0.49% (n = 340,000); AID 651724; AlphaScreen GST-E1A/His-CtBP binding, 1536-well; active compounds read low; control for the full effect not named in the record; activity change, % (no concentration beside the values); in the data active means activity change below about -65%; inconclusive means about -30% to -65%; inactive means above about -30%; note: % is set by controls: 0 for no effect and ±100 for the full control effect
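AlphaScreen with 125 nM GST-E1A and 125 nM His-CtBP (5X stocks) in Tris pH 8.0, 300 mM NaCl, BSA, Tween 20, TCEP. Compounds preincubated 2 h at 37 deg C, then glutathione donor/nickel acceptor beads added for 1 h at 37 deg C in dark.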
TRPML1 blocker – inhibitors of human TRPML1 channel; Q9GZU1; TRPML1-inducible cells, Ca2+ dye fluorescence, FDSS; active compounds read low; inhibition of EC80 agonist-evoked calcium signal; activity change, negative = inhibition, % (concentration not given with the values); actives 0.02% (n = 390,000); AID 624415; in the data active means activity change below about -50%; inconclusive means about -30% to -50%; inactive means above about -30%;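 note: stimulus is agonist 54-4 at its EC80 concentration; % is set by controls: 0 for no effect and ±100 for the full control effect; the text of the record puts the active cut at -80%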
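Calcium fluorescence in TRPML1-DL cells induced overnight with Tet: a 110 s read after compound pin addition, then a 110 s antagonist read after challenge with 54-4 at 4 uM final (EC80).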
Six1-Eya2 blk – inhibitors of human Six1/Eya2 interaction; Q15475+O00167; AlphaScreen GST-Six1/His-Eya2 binding, biochemical; active compounds read low; control for the full effect not named in the record; activity change, % (test concentration not listed); actives 0.56% (n = 360,000); AID 651725; in the data active = activity change below about -65%; inconclusive = about -30% to -65%; inactive = above about -30%; note: % is set by controls: 0 for no effect and ±100 for the full control effect
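Six1/Eya2 binding was read as AlphaScreen signal after compounds were pinned into GST-Six1 plus His-tagged Eya2 (5X stock 250/500 nM) in pH 8.0 Tris/NaCl/TCEP buffer, beads added, then incubated 1 h, 37 C, dark.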
* marks the source's active call; other numbers are inactive results; ? = inconclusive; · = not tested or not shown; & = joins results of further samples; [ ] = remark or other dose.

The line under a structure holds: PINK1 modulator, D2 ag, TRPML1 agonist, CtBP-E1A inh, TRPML1 blocker, Six1-Eya2 blk
1) O=C(CCC1CCCC1)N1CCN(C(=O)c2ccco2)CC1
  -0.1%, -1.4, -0.4, 5, 32, 0
2) COc1ccc(Nc2oc(-c3ccco3)nc2S(=O)(=O)c2ccc(F)cc2)cc1
  1.2%, 3.9, 2.2, ·, -8, -3
3) CCCS(=O)(=O)NC(=O)C1(C)CCN(C(=O)c2sccc2C)C1 (stereo unspecified)
  -0.5%, -1.2, -0.2, -15, ·, 5
4) Cc1ccc(NC(=O)Cn2nnnc2-c2ccccc2N)cc1
  1.1%, ·, 2.7, ·, -5, ·
5) Cc1cc(C)c(C#N)c(SCC(=O)Nc2cccc(S(=O)(=O)N3CCCC3)c2)n1
  ?, -2.8, 0.3, 10, -5, -6
6) CC(=O)Nc1ccc(SCC(=O)Nc2sccc2C#N)cc1
  3.3%, -5.1, -0.8, -8, -11, 15
7) CC(C)(C)NC(=O)CN(C(=O)CS(=O)CC(=O)Nc1ccc(F)cc1)c1ccccc1F (stereo unspecified)
  1.2%, -0.6, -0.9, 3, -3, 1
8) CC(C)(C)NC(=O)NC(=O)COC(=O)c1cccc(S(=O)(=O)N2CCCCC2)c1
  7.0%, 2.5, -0.7, 16, -6, 7
9) COc1cc(C)ccc1OC(C)C(=O)Nc1ccc(N2CCCCC2)cc1 (stereo unspecified)
  3.1%, 0.1, 8.3, ?, 17, ?
10) CCOC(=O)C1CCCN(c2nc3c(S(=O)(=O)c4ccc(Br)cc4)nnn3c3ccsc23)C1 (stereo unspecified)
  2.1%, ·, 0.9, ·, 79, ·
11) O=S(=O)(c1ccccc1)N1CCN(c2nnnn2-c2ccccc2)CC1
  -0.4%, -0.8, 0.0, 2, ?, 3
12) COc1ccc(C(=O)Nc2ccc(C)cn2)cc1S(=O)(=O)N1CCCc2ccccc21
  1.1%, -1.6, 0.0, -1, -2, -4
13) CC(=O)c1c(C)[nH]c(C(=O)Nc2cccc(C#N)c2)c1C
  1.9%, -0.1, -0.2, -26, 9, -20
14) COc1ccccc1C(=O)Nc1ccc(S(=O)(=O)N2CCC(C)CC2)cc1
  1.0%, -2.7, -1.1, 23, 0, 0
15) COc1ccc(CNC(=O)C/C(C)=N/NC(=O)c2ccccc2OC)cc1
  -1.7%, -4.7, 1.4, -3, 27, -2
16) CC(Cc1c[nH]c2ccccc12)C(=O)NCc1ccco1 (stereo unspecified)
  0.5%, 2.2, -0.2, -7, 20, -11
17) CCOc1ccc(Br)cc1CSC(=N)N
  6.8%, -0.5, 2.3, 7, -12, 20
18) CCOc1cc(C(=O)Nc2nnc(S(=O)(=O)N3CCOCC3)s2)cc(OCC)c1OCC
  -0.8%, -1.0, -0.8, 8, 8, 0
19) Cc1onc(-c2ccccc2)c1C(=O)Nc1nnc(N2CCCCCC2)s1
  3.7%, -3.6, -0.2, 3, -1, -9
20) CCOC(=O)N1CCN(c2c(NCc3cccs3)c(=O)c2=O)CC1
  11%, -0.4, -0.6, 7, -9, -2
21) CC(=O)NC1C(OCc2ccccc2)OC(COC(C)=O)C(OC(C)=O)C1OC(C)=O (stereo unspecified)
  0.1%, -0.9, 0.5, ·, 14, 14
22) COc1ccc(OC)c(N/C(C)=C/C(=O)c2ccccc2)c1
  0.3%, -0.3, 0.4, -9, 10, -21
23) Cc1onc(-c2ccccc2Cl)c1C(=O)Nc1ccc(S(=O)(=O)Nc2nccs2)cc1
  0.8%, -4.0, -0.8, 0, 4, 1
24) CCOC(=O)C1CCCN(C(=O)c2ccc([N+](=O)[O-])cc2)C1 (stereo unspecified)
  1.2%, -0.2, 0.1, 3, -5, 1
25) Cc1noc(/C=C/c2ccccc2F)c1S(=O)(=O)N1CCC(C(=O)NCc2ccco2)CC1
  0.1%, ·, -0.5, ·, -11, ·
26) CC(=O)Nc1cccc(-c2cc(NC(C)=O)c3ncc(-c4ccc(C(C)=O)cc4)n3c2)c1
  0.9%, 5.3, -0.7, -6, ·, -9
27) COc1ccc(-c2nnc(SCC(=O)NCCC(C)C)nc2-c2ccc(OC)c(OC)c2)cc1OC
  4.5%&1.3%, 8.9, 2.1&1.9, -2, -10&10, -6
28) CCN=C1SCC(=O)N1c1ccc(OC)cc1
  4.8%[38.3 µM], 2.4, -0.9, 2, 4, 6
29) CC(C)c1nnc(NC(=O)CCC(=O)N2CCN(C3CCCCC3)CC2)s1
  0.4%[38.3 µM], -1.9, -0.5, 8, 6, 1
30) FCCCOc1ccc(/C=N/OCc2c(Cl)cccc2Cl)cc1
  6.7%, 2.7, 0.8, 7, -1, 12

Profiles from above.
CC(=O)NC1C(OCc2ccccc2)OC(COC(C)=O)C(OC(C)=O)C1OC(C)=O (stereo unspecified) as listed: PINK1 modulator: 0.1%; D2 ag: -0.9; TRPML1 agonist: 0.5; CtBP-E1A inh: ·; TRPML1 blocker: 14; Six1-Eya2 blk: 14
CCN=C1SCC(=O)N1c1ccc(OC)cc1 as listed: PINK1 modulator: 4.8%[38.3 µM]; D2 ag: 2.4; TRPML1 agonist: -0.9; CtBP-E1A inh: 2; TRPML1 blocker: 4; Six1-Eya2 blk: 6

New compounds follow.
The line under a structure holds: PINK1 modulator, D2 ag, TRPML1 agonist, CtBP-E1A inh, TRPML1 blocker, Six1-Eya2 blk
31) CC1CC(C)CN(C(=O)C2CCCN(S(=O)(=O)c3cccc4nonc34)C2)C1 (stereo unspecified)
  -2.2%, 1.3, 0.0, -6, 2, 9
32) CC(=O)Nc1ccccc1-c1cccc2nccn12
  -0.1%, -4.1, -0.2, -7, ·, 7
33) CC(C)(C)c1ccc(C(=O)C2CCCN(C(=O)C3CCOCC3)C2)cc1 (stereo unspecified)
  0.4%, 6.9, -0.6, ·, 6, 11
34) O=C1C(=Cc2cccs2)Oc2ccccc21
  -3.5%, 2.6, 4.5, -6, -9, -9
35) COC(=O)[C@]1(C)N[C@H](CN(C)S(=O)(=O)c2ccc(F)cc2)[C@@H]2C(=O)N(C)C(=O)[C@@H]21
  0.6%, -1.8, -0.1, 7, 3, 2
36) c1csc(-c2nn3cnnc3c3ccccc23)c1
  -0.6%, -2.1, -1.0, ?, 6, -16
37) CCOC(=O)CSc1nc2sc3c(c2c(=O)n1-c1ccc(C)cc1)CCN(C)C3
  0.0%, -0.1, 2.1, ?, 2, -18
38) COC(=O)CSc1nc2nc(C)c(Br)cc2[nH]1
  1.0%, -0.4, -0.3, -9, 29, 4
39) CC(=O)N1CCC2(CC1)OC(=O)C(C)=C2C(=O)Nc1cccc(Cl)c1C
  -0.7%, ·, 1.7, ·, 3, ·
40) N#Cc1c(SCC(N)=O)nc2c(c1-c1ccncc1)CCCC2
  -1.1%, 0.7, -0.7, -1, -19, 6
41) CCN1c2ccccc2-c2nc(SCC(=O)Nc3cccc(C(F)(F)F)c3)ncc2S1(=O)=O
  4.9%, ·, 0.2, ·, 52, ·
42) NCCCCCc1cn(CC(=O)NCCCCCCCCCCC(=O)N2CCNCC2)nn1
  -1.1%, -2.7, 0.2, -23, -17, -2
43) CCCC[C@@H]1CNCCN1CCc1cccc(F)c1
  0.0%, -0.9, -0.1, 4, -12, 2
44) COC(=O)c1cc(-c2ccc(Br)cc2)c2c(=O)n(C)c(=O)n(C)c2n1
  1.6%, -3.0, -0.8, ·, -9, 1
45) CN(C)c1ccc(N=c2sc3ccccc3n2C)cc1
  ·, -0.2, 1.8, 44, -5, -84*
46) O=S(=O)(c1ccccc1)c1nc(-c2ccccc2)oc1N1CCCC1
  2.0%, -0.8, 0.3, 5, -8, -14
47) CCOc1ccc(NC(=O)N2CCN(CC)CC2)cc1
  7.5%[38.3 µM], -0.6, 0.6, 4, -13, 5
48) Cc1ccc2nc(N3CCN(C(=O)CCC(=O)O)CC3)nc(-c3ccccc3)c2c1
  -0.9%, -7.5, 0.7, ·, 5, 7
49) O=S(=O)(c1cccc(C(F)(F)F)c1)N1CCN(C(=S)NCc2ccco2)CC1
  1.0%, 0.5, 0.7, 1, -20, -3
50) Cc1c(Cl)c([N+](=O)[O-])nn1CC(=O)N1CCN(Cc2ccccc2)CC1
  -3.1%, 2.0, 0.3, 1, -15, 5
51) Cc1cc(C)c(C(=O)COC(=O)Cn2c(C)csc2=O)cc1C
  -1.4%, -1.3, 2.2, 1, 10, -1
52) COCCNC(=S)N(CCO)Cc1cc2cc3c(cc2[nH]c1=O)OCCO3
  -0.1%, -5.1, -0.3, -12, 0, 0
53) CCCN1C(=O)c2cc(C(=O)NC3CCCC3)ccc2C1O (stereo unspecified)
  0.6%, -3.7, 0.5, -25, 48, -1
54) Cc1nc(NS(=O)(=O)c2ccccc2)sc1NC(=O)Nc1ccc(Cl)cc1
  2.4%, 5.7, -0.2, 25, 17, -3
55) Cc1cccc(C)c1NC(=O)NN1C(C)CCCC1C (stereo unspecified)
  -0.1%, -2.7, 1.1, -2, -3, 0
56) CCOC(=O)C1(Cc2ccccc2C)CCCN(C(=O)CN2CCCCC2=O)C1 (stereo unspecified)
  1.2%, -4.6, 0.1, -17, 4, 1
57) CC(C)(C)C1CCc2c(C(=O)NNC(=O)CCCC(=O)O)csc2C1 (stereo unspecified)
  -2.1%, 0.3, -0.3, 5, 8, 2
58) Cc1cc(C)n2nc(SCC(=O)N3CCC(C)CC3)nc2n1
  1.3%, -3.0, 0.4, 11, -6, 4
59) CC1(Cc2ccccc2Cl)C(=O)Nc2ccc(OC(F)(F)F)cc21 (stereo unspecified)
  1.3%, -1.2, -0.7, 4, -16, 8
60) CN(C(=O)Cn1c(Cl)nc2c1c(=O)n(C)c(=O)n2C)C1CCS(=O)(=O)C1 (stereo unspecified)
  4.7%, -5.0, -0.4, 4, -11, 6
61) COc1ccc(-c2nc3scc(CCNS(=O)(=O)c4c(C)noc4C)n3n2)cc1OC
  0.6%, ·, 1.9, ·, 10, ·
62) CCOC(=O)c1[nH]c(C)c(/C(C)=N\O)c1C
  1.5%, -3.9, -0.4, -1, 7, 7
63) Cc1cc(C)c[n+](CC(=O)c2ccc(-c3ccccc3)cc2)c1
  0.0%, 0.1, 0.5, 0, 33, 1
64) COc1ccc(C(=O)NCC(=O)NCC(=O)OCc2ccc(Br)cc2)cc1
  0.4%, -3.9, 0.2, 0, -22, 2
65) COc1ccc(C(=O)C2CC2)cc1
  -3.1%, -1.1, 0.9, -1, 20, 15
66) CC(=O)c1cccc(NC(=O)CCc2nnc3ccc(N4CCOCC4)nn23)c1
  -1.0%, -2.9, -0.9, 11, 28, 1
67) O=C1CC(c2ccccc2)NN1 (stereo unspecified)
  1.3%, -7.6, -0.9, 2, 2, 2
68) COc1ccc2c(CCNC(=O)CN3C(=O)c4ccccc4C3=O)c[nH]c2c1
  1.9%, -2.1, -0.6, ·, -6, -1
69) CC1CCCCN1C(=O)c1ccc(NC(=O)c2ccccc2Cl)cc1 (stereo unspecified)
  0.5%, -7.0, 3.6, ·, 10, 6
70) O=C(N/C(=C\c1ccccc1)C(=O)N1CCCCC1)c1ccc(Br)o1
  2.9%, -6.1, -0.2, -3, 15, -2

Six1-Eya2 blk: hit marks shown above
no.	SMILES	PINK1 modulator	D2 ag	CtBP-E1A inh	TRPML1 blocker	Six1-Eya2 blk
45	CN(C)c1ccc(N=c2sc3ccccc3n2C)cc1	·	-0.2	44	-5	-84*
